# PINK1 modulator: changes PINK1 expression; Potency, µM (doses to about 76.6 µM), without a hit: top-dose activation (PINK1 increase), most hits filed as activators; 410,000 tested, 0.2% active; PINK1 immunofluorescence, high-content cytometry, 24 h; active = well fitted activation curve with a large enough effect; inconclusive = small, poorly fitted or top-dose-only effect; inactive = flat fitted curve, though single readings scatter; cell line not stated here;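 further: potency means the concentration at half of the fitted maximal effect; % of control where 0% means no effect; nearly all actives have a fitted effect of over 65% in size; a mitochondrial uncoupler was the plate control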
#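 A stable cell line was treated with compounds at 5 concentrations for 24 hours, with CCCP as control. PINK1 levels and mitochondrial localization were measured by immunofluorescence with mitochondrial, cell and nuclear markers after fixation, read by laser-scanning cytometry.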
# gsp antag: antagonizes gsp, the McCune-Albright syndrome mutation. gsp-mutant cells, cAMP HTRF, 30 min; control for the full effect not named in the record. Potency, µM (top dose mostly 76.9 µM), inactives show at the highest dose activity change, negative = inhibition, hits mostly inhibitors. 340,000 tested, 0.4% active; active = falling curve of any shape with a large fitted effect; inconclusive = falling curve, mostly with a smaller effect; inactive = flat or rising curve; cell line not stated here;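 further: intracellular cAMP measured with PDE inhibitor Ro 20-1724 present during compound exposure; potency means the concentration at half of the fitted maximal effect; on the % scale 0 is the no-effect control and ±100 the full control effect; nearly all actives have a fitted effect of over 65% in size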
#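 HTRF cAMP measurement after 30 min RT detection following 30 min, 37C compound treatment alongside […] (added as 300 uM solution) in G418-selected cells seeded at 2000/well and grown 16–24 h.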
# ClpP mod: qHTS Assay for Activators of ClpP; ATP-dependent Clp protease proteolytic subunit (Bacillus subtilis (strain 168)), P80244; purified B. subtilis ClpP, FRET peptide cleavage, 20 min; Potency, µM (series often up to 57.5 µM), for the others: top-dose activity change, negative = active; 340,000 tested, 1.9% active; AID 651965, 2013; active = well fitted falling curve with a large enough effect; inconclusive = small, poorly fitted or top-dose-only effect; inactive = no such curve, though single readings can be large or run the other way; further: potency means the concentration at half of the fitted maximal effect; the source files actives as falling curves though it sought activators and does not explain the sign; nearly all actives have a fitted effect of over 65% in size; many hits overshoot -100%
# Target sequence (P80244 whole entry, looked up): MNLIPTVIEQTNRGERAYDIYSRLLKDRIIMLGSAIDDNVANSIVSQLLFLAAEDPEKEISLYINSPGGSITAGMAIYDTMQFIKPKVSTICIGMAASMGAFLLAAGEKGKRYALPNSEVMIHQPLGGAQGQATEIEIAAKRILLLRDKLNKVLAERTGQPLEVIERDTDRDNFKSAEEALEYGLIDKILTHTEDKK
#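 FRET quenching reversal measured ClpP activation: 10 microg/mL B. subtilis ClpP at pH 8 with the FRET-FV decapeptide, read at 430 nm after 320 nm excitation. The 20-min minus 0-min signal was scaled between DMSO/no-enzyme wells and ADEP (5.8 microM final).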
# D2 agonist: human D2 receptor agonism in beta-arrestin assay; DiscoveRx PathHunter D2 beta-arrestin, luminescence, 90 min; 100% = 57 uM dopamine signal; P14416; activation, % (test concentration not listed); 360,000 tested, 0.084% active; in the data active = activation above about 40%; inconclusive = about 15% to 40%; inactive = below about 15%; further: compound concentration not given in the record; the text of the record calls up to 30% inactive
# Target sequence (P14416 whole entry, looked up): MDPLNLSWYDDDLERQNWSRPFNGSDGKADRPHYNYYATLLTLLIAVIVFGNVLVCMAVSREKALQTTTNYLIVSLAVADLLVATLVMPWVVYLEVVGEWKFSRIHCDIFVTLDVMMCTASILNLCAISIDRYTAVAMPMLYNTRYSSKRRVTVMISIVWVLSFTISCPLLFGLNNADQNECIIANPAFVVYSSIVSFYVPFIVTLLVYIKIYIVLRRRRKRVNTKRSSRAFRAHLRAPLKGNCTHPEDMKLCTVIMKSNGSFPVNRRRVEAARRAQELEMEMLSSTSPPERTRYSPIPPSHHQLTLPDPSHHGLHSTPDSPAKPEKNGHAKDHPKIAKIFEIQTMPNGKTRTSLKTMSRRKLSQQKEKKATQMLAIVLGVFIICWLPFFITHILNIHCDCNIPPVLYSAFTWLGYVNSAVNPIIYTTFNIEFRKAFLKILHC
#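 DiscoveRx PathHunter D2 beta-arrestin cells (2,100/well) attached overnight, then compound-stimulated 90 min at 37 C in HBSS/10 mM HEPES/0.1% Tween-20 buffer; beta-galactosidase complementation read by luminescence after 1 h at ambient temperature. Dopamine 57 uM final (EC100) as control.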
# Sfp PPTase inh: blocks B. subtilis Sfp PPTase activity; Q9F4F7; Potency, µM, inactives show max response, negative = inhibition, hits mostly inhibitors; 310,000 tested, 3.5% active; Biochemical Sfp PPTase activity, qHTS; AID 1490; active means well fitted inhibition curve with a large enough effect; inconclusive means small, poorly fitted or top-dose-only effect, or another doubt; inactive means no such curve, though single readings can be large or run the other way;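 further: the enzyme is Sfp with the accession as filed and its product quenches rhodamine fluorescence; potency means the concentration at half of the fitted maximal effect; 0% = enzyme reaction without inhibitor and -100% = no enzyme wells; top concentration of the series not given in the record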
#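 Fluorescence-quenching assay with 15 nM Sfp, 5 uM rhodamine-CoA and 12.5 uM BHQ-2-labelled ybbR peptide in pH 7.6 Hepes/MgCl2 buffer. Enzyme was pre-incubated with compound for 15 min at room temperature. Rate was taken from the 30-min fluorescence change (525/598 nm).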
# gsp ag: gsp mutant agonism. gsp mutant cells, cAMP HTRF, 30 min; control for the full effect not named in the record. Potency, µM (titrated, usually from 76.9 µM), for the others: at the top dose activation (cAMP increase), hits mostly activators. 340,000 tested, 0.13% active; active = well fitted activation curve with a large enough effect; inconclusive = small, poorly fitted or top-dose-only effect, or another doubt; inactive = no such curve, though single readings can be large or run the other way; cell line not stated here;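 further: phosphodiesterase inhibitor Ro 20-1724 added with compounds to block cAMP breakdown; potency means the concentration at half of the fitted maximal effect; nearly all actives have a fitted effect of over 60% in size; about a fifth of the inactives were tested at one dose only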
#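 Cells in DMEM/10% FBS with G418 were pretreated with compounds in DMSO plus […] (300 uM stock) for 30 min at 37C. cAMP was measured by HTRF (cAMP-d2 plus anti-cAMP antibody-K) after 30 min at room temperature.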
# Menin-MLL FL inh: inhibitors of human menin-MLL interaction, wild-type MLL peptide; Fluorescence polarization, fluorescein-MLL peptide displacement from menin; FP activity change, % at 61.4 µM; 290,000 tested, under 10 active; inconclusive = falling polarisation curve, or a change in total fluorescence; inactive = total fluorescence flat and polarisation flat or rising; no compound was filed as active; the % refers to the polarisation; negative = inhibition;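 further: % of control where 0% means no effect; inhibitors lower the polarisation; unlabelled MLL peptide was the positive control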
# Numbers without * were called inactive; ? = inconclusive; . = no result given; & = joins results of further samples; [ ] = another dose, or the depositor's remark. Random draw from the library. Share with any hit: about 5.1%.
SMILES,PINK1 modulator,gsp antag,ClpP mod,D2 agonist,Sfp PPTase inh,gsp ag,Menin-MLL FL inh
FC(F)(F)c1cnc(Nc2ccc(N3CCOCC3)cc2)c(Cl)c1,-2.0%,-4.6%,0.3%,0.4,-1.6%,-30.5%[inhibitor],2.0
Cc1cc(C)n2c(SCC(=O)Nc3ccccc3)nnc2n1,1.3%,2.7%,-0.9%,-1.0,3.3%,-6.2%,-1.3
O=c1c(-c2cc(F)cc(F)c2)nc2cnc(N3CCNCC3)nc2n1C1CC1,0.9%,.,.,.,-7.3%,.,-6.4
CCOc1ccc(-n2c(SCC(=O)NC)nnc2-c2ccco2)cc1,-1.4%,-4.3%,-12.9%,1.8,-3.1%,9.0%[15.4 µM],-1.5
NC(=O)C1(c2ccccc2)OC1c1ccccc1 (stereo not drawn),1.5%,3.3%,1.2%,-3.6,.,.,.
Cc1ccc(S(=O)(=O)N2C(=O)CCC2C(N)=O)cc1 (stereo not drawn),0.2%,6.3%,0.6%,10.7,5.9%,-30.8%,3.9
OCCNCCCCOc1cccc(Br)c1,-0.5%,24.8%,2.4%,-4.7,-17.7%,-3.1%,0.8
COc1cccc(S(=O)(=O)N2CCN(c3ccccc3F)CC2)c1,-5.1%[38.3 µM],-2.3%,-4.2%,0.1,2.7%,3.0%,0.9
CSCCC(NC(=O)COc1ccccc1)C(=O)OCC(=O)c1ccccc1 (stereo not drawn),-3.0%,1.9%,.,-3.5,.,28.8%[15.4 µM],.
O=C(Nc1ccccc1)C1=C[C@@H](c2ccc(Br)cc2)C[C@@H](OCc2ccc(CO)cc2)O1,-0.2%,-8.7%,-4.4%,-2.8,10.8%,.,1.1
C=CCc1ccc(OCC(O)CN2CCN(Cc3ccc(Cl)cc3)CC2)c(OC)c1 (stereo not drawn),4.9%,-7.4%,0.6%,-7.5,-23.8%,7.3%,4.0
CCNC(=O)C1CC(=O)N(Cc2ccc3c(c2)OCO3)C(=Nc2ccc(F)cc2)S1 (stereo not drawn),3.3%[38.3 µM],-1.2%,-0.3%,-0.5,23.8%,-8.2%,2.4
CC(CN1CCN(C)CC1)OC(=O)c1cccc(F)c1 (stereo not drawn),-0.1%,8.9%,-18.8%,-3.1,-8.1%,-11.8%[15.4 µM],-1.0
Cc1ccc(C(=O)NNC(=O)CCCN2C(=O)/C(=C/c3ccccc3Cl)SC2=S)cc1,5.0%,7.1%,-0.9%,-2.6,?,-3.9%,2.0
CCN1CCN(c2ncnc3sc(C)c(-c4ccccc4)c23)CC1,-1.1%,4.6%,.,?,9.3%,7.8%[15.4 µM],-1.4
O=C(NCCN1CCCC1)c1ccc2c(=O)n(CCc3ccccc3)c(=O)[nH]c2c1,-1.2%,-6.8%,?,-0.6,20.7%,-10.6%,2.6
O=c1c2ccccc2nc2n1CCN2,0.3%[38.3 µM],10.1%,15.8µM*,-0.7,24.8%,-22.1%,-0.6
Cc1ccc(NC(=O)c2sc3ncnc(N4CCN(c5ccccn5)CC4)c3c2C)c(C)c1,1.5%,?,-28.3%,-0.7,14.2%,27.8%,0.0
O=C(O)COc1ccc(NC(=O)c2ccc3c(c2)C(=O)N(CC2CCCO2)C3=O)cc1 (stereo not drawn),0.1%,.,0.2%,-8.1,.,-33.3%[inhibitor],.
CCOc1ccc(N(CC(=O)N2CCCCCC2)S(C)(=O)=O)cc1,-0.1%,4.8%,-1.1%,-3.3,10.4%,1.9%,-0.8
COc1ccc(NC(=O)C(NC(C)=O)C(=O)Nc2ccc(F)cc2)cc1 (stereo not drawn),1.4%,5.7%,0.0%,1.3,6.2%,-8.2%,-0.9
Cc1ccc(OCC(=O)N2CCCCCC2)c(C)c1,1.5%[38.3 µM],0.6%,-3.3%,-3.7,9.4%,-5.3%,-2.2
Cc1ccc(C)c(S(=O)(=O)N2CCN(C(=O)c3ccccn3)CC2)c1,-1.9%,-19.6%,0.0%,-6.6,.,-0.9%,.
O=C(COc1ccc([N+](=O)[O-])cc1)Nc1ccc2c(c1)OCO2,5.3%,.,.,-4.5,-4.1%,-6.0%[15.4 µM],0.2
O=C(CN1C(=O)NC2(CCCC2)C1=O)NCCc1ccccc1,0.5%,13.0%,1.3%,-1.8,.,-31.3%[inhibitor],.

# New compounds follow.
SMILES,PINK1 modulator,gsp antag,ClpP mod,D2 agonist,Sfp PPTase inh,gsp ag,Menin-MLL FL inh
CCOC(=O)c1cnc2nc(COc3ccccc3)[nH]n2c1=O,9.0%[38.3 µM],4.9%,?,-0.7,5.2%,22.0%,5.5
Cc1ccc(C(=O)c2sc(Nc3ccccc3)c(C#N)c2N)cc1,4.4%,-31.4%,.,-2.8,3.3%,-25.8%[15.4 µM],7.4
COc1cc(NS(=O)(=O)c2ccc(NC(=S)NC(=O)c3cccs3)cc2)nc(OC)n1,2.0%,-2.5%,0.9%,-6.3,?,12.0%,5.3
COc1ccc(N2CCN(Cc3nc4scc(-c5ccccc5)c4c(=O)[nH]3)CC2)cc1,-1.1%,6.2%,-4.9%,-0.4,24.4%,-0.5%,20.1
CNS(=O)(=O)c1cn(CC(=O)NCc2ccccc2OC)cc1S(=O)(=O)NC,0.7%,-1.7%,.,0.6,-3.6%,7.1%,-1.4
COc1ccc(-c2c[n+]3c(n2-c2ccccc2)SCC3)cc1OC,-0.7%,10.4%,.,-2.8,19.9%,0.4%[15.4 µM],0.2
COc1ccc(C2CCCN2C(=O)Nc2ccccc2)cc1OC (stereo not drawn),1.0%,3.3%,0.0%,-4.0,-22.5%,-80.0%[inhibitor],0.8
O=S1(=O)CCO[C@H]2Cc3ccccc3[C@H]2N1Cc1ccccc1Br,2.5%,-23.8%,1.7%&-0.3%,-2.2,-14.2%,24.8%,4.6
O=C(/C=C/c1ccc(Cl)cc1)NC(=S)Nc1ccc(C(=O)O)cc1,-0.3%,-13.8%,.,-1.7,-6.3%,-0.7%,-8.5
Cc1cc(C)c2nc(-c3ccccn3)cc(C(=O)NCc3ccco3)c2c1,11.8%,-4.4%,?,-4.4,56.2µM*,-17.0%,0.1
O=C(Nc1ccccc1N1CCCCC1)c1ccco1,0.4%,-1.8%,0.0%,-0.8,-0.6%,-12.5%,8.3
Cn1nnnc1SCCNC(=O)C1CCC(=O)N(Cc2cccc(C(F)(F)F)c2)C1 (stereo not drawn),-0.1%,.,1.5%,-0.1,.,-56.7%[inhibitor],.
COc1ccc(OC)c(C2C3=C(CCCC3=O)NC3=C2C(=O)CCC3)c1,-1.9%,13.1%,0.8%,1.7,-14.5%,?,0.2
COC(=O)C1=C(C)NC(=O)NC1c1ccccc1 (stereo not drawn),-1.1%[38.3 µM],12.7%,-0.5%,-2.8,19.2%,-3.9%,0.3
COc1ccccc1N1CCN(C(=O)C2CCCN(S(=O)(=O)c3ccc(C)cc3)C2)CC1 (stereo not drawn),3.1%,?,-0.3%,-2.3,.,-0.3%,.
O=C1/C(=C/c2cccnc2)CCC/C1=C\c1cccnc1,-1.6%,-9.8%,-12.5%,-1.7,-7.0%,-41.3%,0.7
Cc1cc(C)nc(SCC(=O)N(C)C)n1,0.1%,4.0%,.,-7.8,13.8%,15.2%[15.4 µM],-2.1
COc1cccc(O)c1CN1CCC(n2nccc2NC(=O)c2ccc3c(c2)OCO3)CC1,6.4%,0.9%,-0.6%,1.7,12.9%,11.6%,.
COc1ccc(S(=O)(=O)Nc2cc(Cl)ccc2-n2cncn2)cc1,3.4%,-1.5%,-2.3%,3.3,.,17.1%,.
Cc1ccc(-c2nnc3ccc(SCC(=O)NCc4ccco4)nn23)cc1,-0.2%[38.3 µM],-0.3%,?,-2.0,-13.3%,33.9%,-1.4
Cc1ccc(S(=O)(=O)N2[C@@H](c3ccc(Cl)cc3)C(C(=O)O)=CC[C@H]2c2ccc(Cl)c(Cl)c2)cc1,1.4%,?,0.2%,0.2,.,.,.
O=C(Nc1ccccc1Cl)c1cccc(NC(=O)c2cccs2)c1,7.6%,?,-0.7%,0.5,3.9%,0.9%,.
O=C(NCCC(F)(F)F)c1cccc2c(-c3ccc(F)c(F)c3)coc12,1.1%,.,-4.6%,-0.6,.,.,.
COc1ccc(CN2CCN(c3ccccn3)CC2)c(OC)c1,.,3.9%,-4.0%,?,-22.7%,3.1%,2.2
O=C1OCCC1=CN1CCCCC1,1.2%,.,-1.3%,-4.4,.,-58.1%[inhibitor],.

# Going on with the list.
SMILES,PINK1 modulator,gsp antag,ClpP mod,D2 agonist,Sfp PPTase inh,gsp ag,Menin-MLL FL inh
CCN1C(=O)N[C@@H](c2cccc(C(F)(F)F)c2)[C@@H](C(=O)OC)[C@H]1C,0.7%,4.6%,-2.6%,-1.7,9.0%,-2.1%,-3.4[11.7 µM]
O=C(CCN1C(=O)C2C3C=CC(C4CC34)C2C1=O)Oc1cccc2cccnc12 (stereo not drawn),-0.3%[38.3 µM],-7.2%,1.5%,-2.0,-18.4%,3.9%,0.1
CC(CNC(=O)CN1C(=O)NC2(CCCCC2C)C1=O)c1ccccc1 (stereo not drawn),-1.3%,11.2%,-0.9%,-1.8,.,-7.2%[15.4 µM],.
C=CCSCC(N)C(=O)O (stereo not drawn),0.1%,.,.,.,-11.1%,.,-1.3
CCN(CC)C(=O)Cn1cc(S(=O)(=O)CC(=O)Nc2ccc3c(c2)OCCO3)c2ccccc21,1.6%,-11.4%,0.9%,0.7,13.1%,-14.2%,3.3
Nc1ccc(Cn2ccc3c4c(N)nc(N)nc4ccc32)cc1,-5.1%,0.2%,-28.4%,1.5,.,-34.8%[inhibitor],.
O=C(NC1CCCCC1)c1ccc2c(=O)n(CC3CCCO3)c(=O)[nH]c2c1 (stereo not drawn),-1.0%,7.6%,?,4.6,6.0%,-21.8%,-4.5
O=C(Nc1ncc(Cc2ccccc2)s1)C1=NCCN1,2.8%,-0.1%,.,0.6,15.9%,-6.9%[15.4 µM],-1.0
Cc1c(C(=O)N2CCOCC2)oc2c1C(=O)CC(C)(C)C2,4.0%[38.3 µM],7.3%,-0.8%,-4.4,6.4%,-55.5%[inhibitor],-0.3
CCOc1ccccc1Nc1cc(C)nc2nc(C)nn12,1.0%,-4.0%,0.0%,-1.9,12.5%,-2.4%,2.2
CCOc1cc(/C=N/NC(=O)CNc2cccc(C)c2)ccc1OC(=O)c1ccccc1,0.5%,-6.3%,10µM*,-5.6,4.1%,-23.3%,1.0
Cc1ccc(S(=O)(=O)N2CCC(=O)N([C@H](COCc3ccc(C(F)(F)F)cc3)Cc3ccccc3)CC2)cc1,0.4%,.,-0.9%,.,18.9%,.,-4.2

# Screening data as filed in PubChem BioAssay.
